ClpP mod: qHTS Assay for Activators of ClpP; ATP-dependent Clp protease proteolytic subunit (Bacillus subtilis (strain 168)), P80244; purified B. subtilis ClpP, FRET peptide cleavage, 20 min; Potency, µM (titrated, usually from 57.5 µM), for inactives: top-dose activity change, negative = active; hit rate 1.9% among 340,000; AID 651965, 2013; active = well fitted falling curve with a large enough effect; inconclusive = small, poorly fitted or top-dose-only effect; inactive = no such curve, though single readings can be large or run the other way; further: potency means the concentration at half of the fitted maximal effect; the source files actives as falling curves though it sought activators and does not explain the sign; nearly all actives have a fitted effect of over 65% in size; many hits overshoot -100%
Target sequence (P80244 whole entry, looked up): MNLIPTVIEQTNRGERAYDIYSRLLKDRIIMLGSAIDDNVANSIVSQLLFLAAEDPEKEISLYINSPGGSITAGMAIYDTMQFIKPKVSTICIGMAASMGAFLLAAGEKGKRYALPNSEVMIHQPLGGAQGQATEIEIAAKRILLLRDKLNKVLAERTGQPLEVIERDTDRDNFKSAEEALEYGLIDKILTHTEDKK
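Buffer: 100 mM Tris/HCl pH8, 100 mM KCl, 0.05% low protease BSA, 2.5% glycerol, 0.01% Tween-20. ClpP 10 microg/mL final; 20 min RT; delta FRET normalized to ADEP and DMSO controls.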
TRPV1 PAM: human TRPV1 potentiation; Q8NER1; TRPV1-expressing cells, Fluo-8 calcium influx, capsaicin EC20 potentiation; host cell line not named in the record; control for the full effect not named in the record; potentiation, % at 8.33 µM; hit rate 0.02% among 320,000; active means potentiation above 80%; inconclusive means 30% to 80%; inactive means below 30%; further: 0% is about no effect
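TRPV1-expressing cells were cultured overnight at 35.5C and loaded with Fluo-8 calcium dye for 40 to 90 min at room temperature. After a 10 s baseline, compound was added and calcium influx was read kinetically for 3 min (ex 480/em 520 nm).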
TRPML1 inh: blocks the human TRPML1 channel; Q9GZU1; TRPML1-inducible cells, Ca2+ dye fluorescence, FDSS; active compounds read low; inhibition of EC80 agonist-evoked calcium signal; activity change, negative = inhibition, % (test concentration not listed); hit rate 0.02% among 390,000; AID 624415; in the data active means activity change below about -50%; inconclusive means about -30% to -50%; inactive means above about -30%;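 further: stimulus is agonist 54-4 at its EC80 concentration; on the % scale 0 is the no-effect control and ±100 the full control effect; compound concentration not given in the record; the text of the record puts the active cut at -80%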
Target sequence (Q9GZU1 whole entry, looked up): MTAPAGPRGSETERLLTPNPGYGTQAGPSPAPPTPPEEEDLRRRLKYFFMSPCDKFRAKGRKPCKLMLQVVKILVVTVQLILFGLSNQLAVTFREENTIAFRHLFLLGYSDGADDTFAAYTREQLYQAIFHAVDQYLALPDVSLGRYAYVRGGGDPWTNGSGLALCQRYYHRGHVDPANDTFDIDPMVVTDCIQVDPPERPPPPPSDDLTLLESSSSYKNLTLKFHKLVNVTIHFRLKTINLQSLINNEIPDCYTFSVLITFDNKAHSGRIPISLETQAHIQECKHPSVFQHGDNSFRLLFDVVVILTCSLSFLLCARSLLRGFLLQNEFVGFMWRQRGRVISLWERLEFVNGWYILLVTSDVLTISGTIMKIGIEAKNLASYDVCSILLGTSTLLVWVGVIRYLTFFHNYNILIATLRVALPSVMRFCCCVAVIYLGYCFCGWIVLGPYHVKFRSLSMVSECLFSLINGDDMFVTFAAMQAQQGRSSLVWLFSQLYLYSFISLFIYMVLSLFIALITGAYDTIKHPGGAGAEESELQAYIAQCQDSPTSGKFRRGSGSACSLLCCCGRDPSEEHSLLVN
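Calcium fluorescence in TRPML1-DL cells induced overnight with Tet: a 110 s read after compound pin addition, then a 110 s antagonist read after challenge with 54-4 at 4 uM final (EC80).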
Sfp inh: blocks B. subtilis Sfp PPTase activity | Biochemical Sfp PPTase activity, qHTS | Potency, µM, inactives show max response, negative = inhibition, actives largely listed as inhibitors | hit rate 3.5% among 310,000 | AID 1490; active means well fitted inhibition curve with a large enough effect; inconclusive means small, poorly fitted or top-dose-only effect, or another doubt; inactive means no such curve, though single readings can be large or run the other way;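 further: the enzyme is Sfp with the accession as filed and its product quenches rhodamine fluorescence; potency means the concentration at half of the fitted maximal effect; 0% = enzyme reaction without inhibitor and -100% = no enzyme wells; top concentration of the series not given in the record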
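Reaction rates are the 30-min fluorescence difference (ex 525, em 598 nm) in wells containing 15 nM Sfp, 5 uM rhodamine-CoA and 12.5 uM BHQ-2-YbbR at pH 7.6 with 10 mM MgCl2.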
Menin MLL FP FL: menin-MLL binding inhibition, fluorescein peptide; 290,000 tested, under 10 active; FP activity change, % at 61.4 µM; Fluorescence polarization, fluorescein-MLL peptide displacement from menin; AID 1766; inconclusive = falling polarisation curve, or a change in total fluorescence; inactive = total fluorescence flat and polarisation flat or rising; no compound was filed as active; the % refers to the polarisation; negative = inhibition;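 further: % of control where 0% means no effect; inhibitors lower the polarisation; unlabelled MLL peptide was the positive control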
gsp agonist: agonists of gsp mutant (McCune-Albright syndrome) | AID 624287 | hit rate 0.13% among 340,000 | gsp mutant cells, cAMP HTRF, 30 min; control for the full effect not named in the record | Potency, µM (titrated, usually from 76.9 µM), for the others: at the highest dose activation (cAMP increase), hits mostly activators; active = well fitted activation curve with a large enough effect; inconclusive = small, poorly fitted or top-dose-only effect, or another doubt; inactive = no such curve, though single readings can be large or run the other way; cell line not stated here;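 further: phosphodiesterase inhibitor Ro 20-1724 added with compounds to block cAMP breakdown; potency means the concentration at half of the fitted maximal effect; nearly all actives have a fitted effect of over 60% in size; about a fifth of the inactives were tested at one dose only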
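Cells in DMEM/10% FBS with G418 were pretreated with compounds in DMSO plus […] (300 uM stock) for 30 min at 37C. cAMP was measured by HTRF (cAMP-d2 plus anti-cAMP antibody-K) after 30 min at room temperature.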
gsp antagonist: antagonizes gsp, the McCune-Albright syndrome mutation; gsp-mutant cells, cAMP HTRF, 30 min; control for the full effect not named in the record; Potency, µM (series often up to 76.9 µM), without a hit: top-dose activity change, negative = inhibition, hits mostly inhibitors; hit rate 0.4% among 340,000; AID 624288; active = falling curve of any shape with a large fitted effect; inconclusive = falling curve, mostly with a smaller effect; inactive = flat or rising curve; cell line not stated here;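 further: intracellular cAMP measured with PDE inhibitor Ro 20-1724 present during compound exposure; potency means the concentration at half of the fitted maximal effect; on the % scale 0 is the no-effect control and ±100 the full control effect; nearly all actives have a fitted effect of over 65% in size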
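HTRF cAMP measurement after 30 min RT detection following 30 min, 37C compound treatment alongside […] (added as 300 uM solution) in G418-selected cells seeded at 2000/well and grown 16–24 h.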
Numbers without * were called inactive; u = inconclusive; x = no result given; & = joins results of further samples; [ ] = dose if it differs, or a comment. Rows were taken by chance. Share with any hit: about 4.9%.

canonical_smiles | TRPV1 PAM | ClpP mod | gsp antagonist | gsp agonist | TRPML1 inh | Sfp inh | Menin MLL FP FL
CCC(=O)Nc1ccc(-c2cc(-c3ccccc3)nc(-c3ccc(NC(=O)CC)cc3)n2)cc1 | -7 | u | 6% | 0% | -7 | 14% | x
COc1cccc(C(=O)NC(=S)Nc2ccc(Cl)c(C(=O)O)c2)c1 | 26 | 1.7% | -2% | 6% | 14 | u | 2.1
COC(=O)C(C(=O)OC)c1ccccc1[N+](=O)[O-] | 3 | 0.7% | 3% | -19% | -1 | 2%&15% | -4.9&-0.4
O=C(C1CCCN(c2ncnc3c2nc2n3CCCCC2)C1)N1CCN(c2ccc(F)cc2)CC1 (stereo not given) | -19 | 0.2% | u | 21% | 11 | 18% | 0.1
COc1ccccc1-c1nn2c(=O)cc(C)nc2s1 | -9 | 68% | 8% | 13% | 16 | 3% | 1.1
CCOC(=O)CNC(=O)Nc1nnc(-c2ccc(OCC)cc2)o1 | -4 | 6.3µM* | 10% | -2% | 11 | 9% | -0.3
CCCS(=O)(=O)c1c(S(=O)(=O)CCC)c2c(N)cccn2c1C(=O)c1ccc(OC)cc1 | 3 | x | -16% | 1%[15.4 µM] | -8 | -1% | u
S=c1[nH]ncn1/N=C/c1cccs1 | 18 | -0.2% | 1% | -14% | 38 | -24% | -7.6
Clc1ccc(Br)cc1-c1nc(-c2ccncc2)no1 | 10 | -3.7% | 5% | 2% | 29 | 3% | -3.4
COc1ccc(-c2cc(C(=O)N(C)Cc3ccccc3F)c3ccccc3n2)cc1OC | -2 | u | -7% | -31%[inhibitor] | 2 | 10% | x
CCCCC(=O)Nc1cccc(-c2nc3ncccc3o2)c1 | 10 | 16µM* | 6% | -49%[inhibitor] | -13 | 1% | 0.8
CC(C)[C@H](NC(=O)OCc1ccccc1)C(=O)OCC(=O)N1C(C)CCCC1C (stereo not given in full) | x | x | 6% | 1% | 1 | x | x
O=C(COC(=O)/C=C/c1cccc(Br)c1)NCCc1ccccc1 | 1 | 2.6% | 6% | -5% | -8 | x | x
CCC1(C)Cc2ccccc2/C(=C/C(=O)N2CCCCC2)N1 (stereo not given) | -9 | -1.0% | -11% | 29% | -15 | 14% | -11
O=C1c2cccc3cccc(c23)C(=O)N1CCCN1CCN(c2ccc(F)cc2)CC1 | -1 | -29% | -28% | 24% | 28 | 0% | -1.1
CC(Oc1ccc(-c2ccccc2)cc1)C(=O)N/N=C/c1cccnc1 (stereo not given) | -12 | x | -15% | 18%[15.4 µM] | 4 | 3% | x
CC1(C)Cc2c(sc3ncn4nnnc4c23)CO1 | 0 | x | x | x | x | 19% | -0.4
C/C(=N\Nc1nc(C)cc(-c2ccccc2)n1)c1ccc(C)o1 | 2 | -0.9% | -17% | -47%[inhibitor] | 8 | 1% | 3.0
CCC(CNc1cc(OC)cc2cccnc12)NC1CCCCC1 (stereo not given) | -18 | 1.2% | 8% | -7% | 11 | 45µM* | u
Cc1c(NS(=O)(=O)c2ccc(Br)cc2)c(=O)n(-c2ccccc2)n1C | u | 2.6% | -4% | 13% | x | 4% | 1.7
Fc1ccc(Oc2ncccn2)c(F)c1 | 12 | x | 4% | 13% | 10 | 26% | 0.9
Cc1cc(C)n(-c2nncn2NC(=O)c2ccc(Cl)cc2O)n1 | u | -3.9% | -6% | -62%[inhibitor] | -2 | u | 0.7
CCOc1ccc(CN2CCN(CC(O)Cn3c4ccccc4c4ccccc43)CC2)cc1 (stereo not given) | 10 | -1.7% | 9% | 7%[15.4 µM] | 10 | u | 0.0
O=[N+]([O-])c1ccc(S(=O)(=O)NCC(c2cccnc2)N2CCc3ccccc32)cc1 (stereo not given) | -3 | -0.6% | -17% | -8%[15.4 µM] | 18 | x | x
O=C(OCCN=C1NS(=O)(=O)c2ccccc21)c1ccccc1F | 16 | x | -1% | -2% | 49 | 12% | 4.5
O=C(CSc1nncs1)NNC(=O)c1ccco1 | -10 | 0.5% | 11% | -10% | 3 | x | x
COc1ccccc1Nc1ncccc1C(=O)NCc1ccccc1 | 8 | 5.0% | -2% | -12% | -3 | -9% | 1.4
Cc1ccc(Nc2c3c(nc4ncnn24)CC(C)CC3)cc1 (stereo not given) | 4 | 0.4% | -1% | 0% | 32 | 11% | -0.5
Cc1ccc(S(=O)(=O)N2CCC(C(=O)OCC(=O)N3CCCCC3C)CC2)cc1C (stereo not given) | -2 | 2.5% | -3% | -7% | -8 | x | x
CS(=O)(=O)N1CCC(C(=O)NCCN2CCN(Cc3ccccc3)CC2)CC1 | 1 | -1.9% | 1% | 16% | 3 | 5% | -2.5
CC(C)CC1(C(=O)NCc2ccccn2)C=CCN1C(=O)c1ccccc1 (stereo not given) | 2 | -1.0% | 1% | x | -15 | 10%&10% | 1.7&0.1
O=C(CSc1ccsc1[N+](=O)[O-])N1CCCCC1 | -24 | x | 10% | -2%[15.4 µM] | 3 | 7% | -0.4
O=C(NCCCCNC(=O)c1ccccn1)c1ccccn1 | 12 | -2.0% | 4% | -136%[inhibitor] | -1 | 79µM* | -3.6
CCOC(=O)C1CCCN(C(=O)c2cc3c(=O)n4ccccc4nc3s2)C1 (stereo not given) | 12 | u | 4% | 11%[15.4 µM] | -2 | 16% | x
C=Cc1ccc(Cn2c(=O)n(C)c(=O)c3sccc32)cc1 | -4 | x | 2% | -39%[inhibitor] | 7 | 1% | -0.4
CC(Sc1nnc(-c2cccnc2)o1)C(=O)NC1CCCCC1 (stereo not given) | -7 | 0.0% | 1% | 8% | -9 | x | x
CCCCN1C(N)=NC[C@@H]1c1ccccc1 | x | -5.3% | -9% | -11% | -15 | x | x
COc1ccc(CC(=O)Nc2ccc3c(c2)CCC3)cc1S(=O)(=O)N1CCOCC1 | 17 | 0.0% | 13% | -46%[inhibitor] | 7 | 6% | 0.7
COC(=O)CN1C(=O)[C@H]2[C@@H](c3ccc(C)o3)N3C(=O)CN(Cc4ccccc4)C(=O)[C@@]3(Cc3ccccc3)[C@H]2C1=O | 0 | -16% | 4% | x | 6 | u | 2.3
O=C(OCc1cccc2ccccc12)c1ccc2c(=O)[nH]c(CN3CCOCC3)nc2c1 | 0 | -1.4% | -8% | 0% | 23 | -10% | 7.2
Cc1ccc(C)c(C(=O)COC(=O)c2cc([N+](=O)[O-])ccc2N2CCOCC2)c1 | -6 | -1.6% | -10% | -11% | -8 | x | x
Cc1ccc(NC(=O)COC(=O)CCc2c(C)nc3nc(N)nn3c2C)cc1C | -6 | 3.7% | -1% | u | -2 | x | x
FC(F)(F)c1nc2nc(Cl)c(Cl)nc2[nH]1 | x | -3.3% | x | 7% | 13 | x | x
Oc1c(CN2CCCC(C(F)(F)F)C2)cc(Cl)c2ccccc12 (stereo not given) | 13 | -1.3% | -18% | 2%[15.4 µM] | 68 | -12% | 11
Nc1nonc1C(=O)OCC(=O)N1CCCCC1 | x | -1.8% | 9% | 10% | 33 | 30% | -0.1
O=C(Nc1ccc(CN2CCCCC2)cc1)c1cccc(F)c1 | -8 | -1.7% | 11% | -2%[15.4 µM] | -7 | 20% | -2.4
COc1cccc(C2CC(c3cccs3)=NN2C(=O)CSC2=NN3CCCC(=O)N=C3S2)c1OC (stereo not given) | -24 | -21% | -19% | 11% | 1 | 0% | -0.7
COc1cccc(C(=O)NNC(=O)C(=O)N2CCCCC2)c1 | -4 | x | 5% | 8% | 8 | 10% | 0.8

The list goes on; the last five above are carried over.
canonical_smiles | TRPV1 PAM | ClpP mod | gsp antagonist | gsp agonist | TRPML1 inh | Sfp inh | Menin MLL FP FL
Oc1c(CN2CCCC(C(F)(F)F)C2)cc(Cl)c2ccccc12 (stereo not given) | 13 | -1.3% | -18% | 2%[15.4 µM] | 68 | -12% | 11
Nc1nonc1C(=O)OCC(=O)N1CCCCC1 | x | -1.8% | 9% | 10% | 33 | 30% | -0.1
O=C(Nc1ccc(CN2CCCCC2)cc1)c1cccc(F)c1 | -8 | -1.7% | 11% | -2%[15.4 µM] | -7 | 20% | -2.4
COc1cccc(C2CC(c3cccs3)=NN2C(=O)CSC2=NN3CCCC(=O)N=C3S2)c1OC (stereo not given) | -24 | -21% | -19% | 11% | 1 | 0% | -0.7
COc1cccc(C(=O)NNC(=O)C(=O)N2CCCCC2)c1 | -4 | x | 5% | 8% | 8 | 10% | 0.8
Cc1nn(CCCC(=O)NCCCN2CCN(C)CC2)c(=O)c2c1sc1ccccc12 | 4 | -10% | 3% | -20% | -7 | 9% | 0.4
CCOc1cc(NC(=S)NCc2ccco2)c(OCC)cc1NC(=O)C1CC1 | -4 | u | 2% | 5% | 8 | 9% | 6.6
COc1ccc(N2CCN(Cc3nc4c(c(=O)n(C)c(=O)n4C)n3Cc3cccc(C)c3)CC2)cc1 | -8 | -2.3% | 8% | -37%[inhibitor] | 16 | -13% | 0.7
COc1ccccc1OCCCOc1cccc(/C=C2\SC(=O)NC2=O)c1 | u | x | u | -3% | 33 | u | 2.9
COc1ccc(CCn2c(=N)c(C(=O)NCc3ccco3)cc3c(=O)n4ccccc4nc32)cc1OC | x | 1.2% | -5% | -27% | 3 | x | x
O=C(/C=C/Nc1nccs1)C(F)(F)Cl | 14 | x | 6% | -5% | 17 | 15% | 10
CCN(CC)C(=O)[C@H]1C[C@H](CC(=O)NC/C=C(\C)CCC=C(C)C)C(=O)N2CCc3c([nH]c4ccc(Cl)cc34)[C@]12C | x | 0.2% | 6% | x | 19 | x | x
N/C(=N\OC(=O)N1CCOCC1)c1ccc(Br)cc1 | 4 | 0.3% | 1% | -26% | 4 | -2% | 5.9
CCN(Cc1ccccc1)C(=O)c1cc(-c2ccc(OC)c(OC)c2)nc2ccccc12 | -7 | -29% | u | 3% | 42 | 11% | x
COc1ccc(NC(=O)c2oc3ccccc3c2NC(=O)c2ccc3c(c2)OCO3)cc1 | -32 | u | 2% | 12% | -2 | 10% | 3.7
CC(NC(=O)COC(=O)C1=COCCO1)C12CC3CC(CC(C3)C1)C2 (stereo not given) | -8 | x | 4% | -10%[15.4 µM] | -2 | -2% | -1.7

Compound activity (PubChem BioAssay)
